From PubChem BioAssay
TsaE inh: inhibitors of E. coli YjeE (TsaE) | purified YjeE, fluorescence polarisation of a bound ADP probe | Potency, µM | actives 0.05% (n = 71,000) | AID 605; active = well fitted falling curve; inconclusive = weaker or top-dose-only fall, or a rising curve; inactive = flat or poorly fitted curve;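 note: top concentration of the series not given in the record; excess ADP was the control for the full effect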
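Purified YjeE (10 uM) with BODIPY Texas Red-labeled ADP probe (2 uM); compounds pin-transferred, 15 min at room temperature. Binding inhibition read as decreased fluorescence polarization; ADP titration as control.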
Bst PK mod: pyruvate kinase (B. stearothermophilus) modulation; Potency, µM; actives 1.2% (n = 51,000); partly purified Bacillus stearothermophilus pyruvate kinase, luminescence ATP production; ribose 5-phosphate activator present at AC10; AID 361; in the data active means potency below about 11 µM; inconclusive means mostly about 12 µM to 25 µM; inactive means weaker than that;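 the screen sought inhibitors and activators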;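 note: potency is the fitted concentration of half-maximal effect; scaled between full activation by ribose 5 phosphate and full inhibition by luteolin; about four in five hits inhibit and the cells do not say which; series up to 57 µM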
* = called active by the depositor; i = inactive; ? = inconclusive; . = no result given. Not all compounds are listed; rates above refer to the full screens.

smiles	TsaE inh	Bst PK mod
O=C(Nc1ccc(N2CCOCC2)cc1)c1cnsn1	i	7.1*
CC(=O)c1ccc(OCC(O)CN2CCN(c3ccccn3)CC2)cc1 (stereo not given)	i	.
O=c1ccc2cc(S(=O)(=O)Nc3ccc(F)cc3)ccc2o1	i	.
COc1ccc(NC(=O)CSc2nnc(CNC(=O)COc3ccc(Cl)cc3)o2)c(OC)c1	i	>57
CCN1C(=O)CC(N2CCN(C(c3ccccc3)c3ccccc3)CC2)C1=O (stereo not given)	i	>57
COc1ccc(OC)c(C(c2nnnn2C2CCCC2)N2CCN(c3ccccc3)CC2)c1 (stereo not given)	i	>57
O=C(Cc1cccs1)N1CCCC(c2nc3c(nnn3Cc3ccc(F)cc3)c(=O)[nH]2)C1 (stereo not given)	i	>57
Cc1cccc(-n2ncc3c(N4CCc5ccccc54)ncnc32)c1	i	>57
O=C(O)CCC(=O)N1CCN(c2cccc(Cl)c2)CC1	i	>57
COC(=O)c1ccc(CSc2nc3ccccc3c(=O)n2-c2cccc(OC)c2)o1	i	>57
CCCCOC(=O)Cn1c(=O)c2c(nc(Br)n2Cc2ccccc2)n(C)c1=O	i	>57
N#CC1=C(N)Oc2c(sc3ccccc23)C1c1ccco1 (stereo not given)	i	.
Cc1ccc2[nH]c(=O)c(CN(Cc3cccnc3)Cc3nnnn3CCN3CCOCC3)cc2c1	i	>57
CN1C(c2ccc(F)cc2)=CS/C1=C(\C#N)c1nnc2n1-c1ccccc1SC2	i	>57
O=C(O)C1CCN(c2ncnc3ccc(-c4ccccc4C(F)(F)F)cc23)CC1	i	.
CCOc1ccc(N2C(=O)CC(N3CCN(C(=O)CN4CCCC4)CC3)C2=O)cc1 (stereo not given)	i	.
O=C(COC(=O)c1cc[n+]([O-])cc1)Nc1ccc2c(c1)OCCO2	i	>57
CC1CCN(CCCNC(=O)c2coc3nc4ccccc4nc23)CC1	i	>57
O=C(Nc1nc(-c2ccncc2)cs1)C1COc2ccccc2O1 (stereo not given)	i	.
Cc1c(Nc2cc(=O)oc3ccccc23)c(=O)n(-c2ccccc2)n1C	i	>57
COCCn1c(Cc2ccccc2)nnc1SCC(=O)N(C)C	i	.
Cc1cc2ncc(C(=O)Nc3ccccc3)c(C)n2n1	i	>57
O=C(CCn1cnc2ccccc2c1=O)Nc1ccc(S(=O)(=O)N2CCCCC2)cc1	i	>57
COc1ccccc1N1CCN(c2cc(C)nc3nc(C)nn23)CC1	i	.
COc1cccc(NC(=O)C2CCCN2C(=O)Nc2cccc(F)c2)c1 (stereo not given)	i	>57
CCCCCCn1c(SCC(=O)c2ccccc2)nc2c1c(=O)[nH]c(=O)n2C	i	.
O=C(Cc1cccs1)Nc1nnc(SCC(=O)NC2CCCCC2)s1	i	>57
Cc1ccc2c(c1)cc(CN(Cc1ccco1)S(=O)(=O)c1ccccc1)c1nnnn12	i	>57
O=C(NCc1ccccc1)C(c1cccs1)N(C(=O)c1csnn1)C1CC1 (stereo not given)	i	>57
Cc1nc(C)c(-c2csc(NCc3ccco3)n2)s1	i	.
COc1ccc(-c2nn(-c3ccccc3)cc2C(=O)NCCCn2ccnc2)cc1	i	>57
CC(C)(NO)/C(=N/O)c1cccs1	i	>57
CCOC(=O)c1c(C)c(C(=O)NC2CCCCCC2)c(C)n1C	i	>57
N#Cc1nc(COc2ccccc2Cl)oc1N1CCCCCC1	i	.
CC1NC(=O)NC1CCCCCC(=O)NCCc1ccccc1 (stereo not given)	i	>57
CC(=O)N(CN1C(=O)C2CC=CCC2C1=O)c1cccc(Cl)c1 (stereo not given)	i	>57
c1ccc(CSc2nnc(-c3cccs3)o2)cc1	i	.
O=C(Nc1ccccc1N1CCN(c2ccc(F)cc2)CC1)C1CCCCC1	i	>57
COC(=O)c1cn(NC(=O)C2CCCCC2)c(=O)c2ccccc12	i	>57
COc1ccc(CC(=O)Nc2ccc(OC)c(NC(=O)c3ccco3)c2)cc1	i	>57
O=C1C(Cl)=C(Sc2nnc3c4ccccc4c4ccccc4c3n2)C(=O)c2ccccc21	i	.
COCCCNC(=O)c1c(F)c(F)c(F)c(F)c1F	i	.
Cc1ccccc1-n1nc2c(c1NC(=O)c1ccc(Br)o1)CSC2	i	>57
O=C(CCC(=O)N(CC(=O)NC1CCCC1)C1CCCC1)Nc1ccccn1	i	>57
CC1CN(S(=O)(=O)Cc2ccccc2)CC(C)O1 (stereo not given)	i	>57
C(=N\n1cnnc1)/c1cn(Cc2ccccc2)c2ccccc12	i	.
COc1cccc(C(=O)Nc2ccccc2N2CCCC2)c1	i	>57
COc1ncnc2c1NC(=O)CS2	i	>57
COc1cc(C2C(C#N)=C(C)NC3=C2C(=O)CC(C)(C)C3)ccc1OCCO (stereo not given)	i	.
CCOC(=O)C1CCN(c2nc3ccccc3nc2C(C#N)C(=O)OC(C)C)CC1 (stereo not given)	.	>26
Cc1cc(CN(C)C)c(O)c(C2(C)CCCCC2)c1	i	>57
COc1ccc(CC2CCOC2=O)cc1 (stereo not given)	i	.
COc1cccc(OC)c1C(=O)Nn1c(C2CCC2)nc2ccccc2c1=O	i	>57
Cc1cccc(N2C(=O)C3C4C=CC(C4)C3C2=O)c1 (stereo not given)	i	>57
CCCCCCSC1=C(C#N)C(c2ccccc2)CC(=O)N1 (stereo not given)	.	>26
COc1ccc(N2CCN(C(=O)CSc3nnc(-c4cccnc4)n3-c3ccccc3)CC2)cc1	i	>57
CCCC(=O)c1ccc(N2CCN(C(=O)c3ccccc3Br)CC2)c(F)c1	i	.
c1ccc(-n2ncc3c2ncn2nnnc32)cc1	i	>57
CC(C)NC(=O)N1CCC2(CC1)CCN(C(=O)c1csnn1)CC2	i	.
Cc1nnc(SCSc2nnc(C)s2)s1	i	>57

(more compounds)
smiles	TsaE inh	Bst PK mod
CCN1C(=O)C(O)(CC(=O)c2ccc3c(c2)OCCO3)c2ccccc21 (stereo not given)	i	.
COCCn1nnnc1C(c1ccccc1OC)N1CCc2ccccc2C1 (stereo not given)	i	>57
Cc1ccc(N2C(=O)SC(N(CC(=O)O)c3cccc(C)c3)C2=O)cc1 (stereo not given)	i	>57
CCCC(=O)Nc1cnc(NC(=O)c2cccc(F)c2)cc1C	i	.
Cc1ccc(C)c(Cn2cnc3c(nnn3-c3ccc(F)cc3)c2=O)c1	i	>57
COC(=O)C1=C(C)NC(C)=C(C(=O)OC)C1c1ccc(NC(C)=O)cc1	i	>57
CN1CCc2c(sc3ncn4nc(-c5ccccc5O)nc4c23)C1	.	i
Cc1noc(C)c1COC(=O)c1cc(=O)[nH]c2ccccc12	i	>57
COc1cc(-c2c(C#N)c(N)nc3c2CCCC3)ccc1O	i	>57
Cc1noc(C)c1-c1cc(Nc2ccccc2)ncn1	i	.
COc1ccccc1CNc1cc(-c2ccccc2CN(C)C)ncn1	i	.
COc1cc(C2c3c(oc4c(C)cc(C)cc4c3=O)C(=O)N2Cc2cccnc2)cc(OC)c1OC (stereo not given)	i	>57
Cc1cc(C)c(-n2c(O)c(C=NCCN3CCOCC3)c(=O)[nH]c2=O)c(C)c1	.	>26
CCc1nc(SCC(=O)Nc2ccc3c(c2)OCCO3)c2oc3ccccc3c2n1	i	>57
O=C(CN(c1ccc(F)cc1)S(=O)(=O)c1ccc2c(c1)OCCO2)NCC1CCCO1 (stereo not given)	i	>57
Cc1sc2ncnc(NCC(c3ccco3)N(C)C)c2c1C (stereo not given)	i	>57
O=c1oc2ccccc2c2c1ncn2CCN1CCOCC1	i	.
CCC(Sc1nncn1C)C(=O)Nc1nnc(-c2ccccc2Cl)s1 (stereo not given)	i	.
C=CCOc1c(OC)cc(Cl)cc1C1NC(=O)NC(C)=C1C(C)=O (stereo not given)	i	>57
COc1ccccc1N=C1SC(C)CN1C(=O)C1CCC1 (stereo not given)	i	>57
O=C(Nc1ccc(F)cc1F)c1cc(-c2ccco2)on1	i	.
COc1cc(CNc2ccccc2SC)ccc1O	i	.
O=C(c1c(F)cccc1F)N1CCC(O)(c2cccnc2)CC1	i	>57
Cc1noc(C)c1CSCC(=O)NC1=NCCS1	i	>57
Cc1ccc(N2C(=O)c3ccccc3C2=O)cc1Cl	i	>57
COc1ccc(C2CC(=O)c3cnc(N4CCN(Cc5ccccc5)CC4)nc3C2)cc1 (stereo not given)	i	>57
Cc1ccc(-c2nnc(N3CCCCC3)c3ccccc23)cc1S(=O)(=O)N1CCN(C)CC1	i	.
O=C(Cn1c(NCCCO)nc2ccccc21)c1ccc(Br)cc1	i	>57
COc1cccc(C(=O)NC(C)C(c2cccs2)N2CCN(C)CC2)c1 (stereo not given)	i	>57
COCC(=O)NC1CC2CCCC(C1)N2Cc1ccccc1 (stereo not given)	i	>57

Continuation.
| SMILES | TsaE inh | Bst PK mod |
| --- | --- | --- |
| CCN(CC)c1ccc(NC(=O)C2CCCN(S(=O)(=O)c3cnc[nH]3)C2)c(C)c1 (stereo not given) | i | . |
| CC(=O)SCC(=O)N=c1sc2cc(F)ccc2n1C | i | >57 |
| CCc1cc2c(NCCO)ncnc2s1 | i | . |
| Cc1ccc(C)c(Cn2nnc3c(=O)[nH]c(C4CCCN(C(=O)C5CCC5)C4)nc32)c1 (stereo not given) | i | >57 |
| Cc1ccc(Cc2c(C)nc3nc(SCC(=O)NCc4ccco4)nn3c2C)cc1 | i | >57 |
| OCc1nc2ccccc2n1CCCOc1ccc(Br)cc1 | i | ? |
| CN(CCC#N)C(=O)CSc1ncnc2sc(-c3ccccc3)cc12 | i | ? |
| COc1cccc(NC(=O)CSc2nnc(Cc3cccn3C)n2-c2ccc(F)cc2)c1 | i | . |
| COc1cccc2cc(C(=O)n3ccc(C)n3)c(=O)oc12 | i | >57 |
| O=C(O)C1CCCN1S(=O)(=O)c1ccc(Cl)c(Cl)c1 (stereo not given) | i | . |
| Nc1nc(N)c(N=Nc2ccc(C(=O)O)c(O)c2)c(N)n1 | i | . |
| Cn1cccc1Cc1nnc(SCC(=O)Nc2ccc3c(c2)OCO3)n1CCc1ccccc1 | i | . |
| CC(C)c1c(O)nc(SCCN(C)C)[nH]c1=O | i | >57 |
| COC(=O)c1cccc(NC(=O)CSc2ncn[nH]2)c1 | i | >57 |
| COc1ccc(CCNS(=O)(=O)c2cccc(S(=O)(=O)N3CCCC3)c2)cc1OC | i | >57 |
| Cc1ccc2[nH]c(=O)c(CN(Cc3ccccc3)Cc3nnnn3C3CCCC3)cc2c1 | i | >11 |
| COC(=O)c1ccccc1NC(=O)Nc1cccs1 | i | >57 |
| NS(=O)(=O)c1ccc(NC(=O)c2ccccc2C(=O)N2CCCCC2)cc1 | i | >57 |
| COC(=O)c1cccc(NCN2C(=O)c3ccccc3C2=O)c1 | i | . |
| Fc1ccc(C(c2ccc(F)cc2)N2CCN(C/C=C/c3ccccc3)CC2)cc1 | . | >26 |
| COc1ncc2nc(-c3cn(C)c4ccccc34)c(=O)n(-c3ccccc3)c2n1 | i | . |
| CCOc1ccc(N2CCn3c2nc2c3c(=O)n(CCc3ccccc3)c(=O)n2C)cc1 | i | >57 |
| O=C(O)c1cccc(-n2cccc2/C=N/O)c1 | i | . |
| CCOc1ccc(OCC)c(S(=O)(=O)NCc2ccc3c(c2)OCO3)c1 | i | . |
| CC(C)CSc1nc2c(c(=O)[nH]c(=O)n2C)n1CCc1ccccc1 | i | >57 |
| N#Cc1ccc(CN2CC3(CCN(C(=O)c4cccc(F)c4)CC3)C2)cc1 | i | . |
| C(=NC12CN3CN(CN(C3)C1)C2)c1ccc2c(c1)OCO2 | i | >57 |
| O=C(NCc1n[nH]c(=S)n1-c1ccc(F)cc1)c1ccc(S(=O)(=O)N2CCCC2)cc1 | i | >57 |
| CCc1ccc(OCC(=O)Nc2ncc3c(n2)CC(C)(C)CC3=O)cc1 | i | >57 |
| CCc1ccc(-c2nc(-c3ccncc3)no2)cc1 | i | . |

Rewritten with two lines to a compound: entries from further up.
Values run as follows: TsaE inh	Bst PK mod
> O=C(NCc1n[nH]c(=S)n1-c1ccc(F)cc1)c1ccc(S(=O)(=O)N2CCCC2)cc1
    i	>57
> CCc1ccc(OCC(=O)Nc2ncc3c(n2)CC(C)(C)CC3=O)cc1
    i	>57

Following part
| SMILES | TsaE inh | Bst PK mod |
| --- | --- | --- |
| CCCn1c(=O)c2ccccc2n2c(SCCOc3ccc(Cl)cc3)nnc12 | i | >57 |
| COc1ccc(NC(=O)C2CCN(C(=O)c3ccccc3)CC2)c(OC)c1 | i | . |
| COc1ccc(-c2cc(C(=O)NCc3cccnc3)no2)cc1 | i | . |
| CC1CCCC(C)N1C(=O)CSc1nc2ncnc(N)c2[nH]1 (stereo not given) | i | . |
| NCCC[C@@H](CC(=O)N[C@@H]1CCNC[C@H]1C(=O)N[C@H](CC(=O)N[C@@H](CCC(=O)O)CC(=O)O)Cc1c[nH]c2ccccc12)NC(=O)C[C@H](CO)NC(=O)[C@@H]1CNCC[C@H]1N | i | . |

Arranged by number of heavy atoms (rising): seven of the compounds above.
| SMILES | TsaE inh | Bst PK mod |
| --- | --- | --- |
| Cc1cc2ncc(C(=O)Nc3ccccc3)c(C)n2n1 | i | >57 |
| Cc1c(Nc2cc(=O)oc3ccccc23)c(=O)n(-c2ccccc2)n1C | i | >57 |
| CCN1C(=O)CC(N2CCN(C(c3ccccc3)c3ccccc3)CC2)C1=O (stereo not given) | i | >57 |
| CCN(CC)c1ccc(NC(=O)C2CCCN(S(=O)(=O)c3cnc[nH]3)C2)c(C)c1 (stereo not given) | i | . |
| CCc1nc(SCC(=O)Nc2ccc3c(c2)OCCO3)c2oc3ccccc3c2n1 | i | >57 |
| O=C(NCc1n[nH]c(=S)n1-c1ccc(F)cc1)c1ccc(S(=O)(=O)N2CCCC2)cc1 | i | >57 |
| Cc1ccc(-c2nnc(N3CCCCC3)c3ccccc23)cc1S(=O)(=O)N1CCN(C)CC1 | i | . |
